Yeast UUG start: modulators of start codon recognition fidelity in yeast. S. cerevisiae UUG-firefly luciferase reporter, luminescence/redox ratio. activity score, % at 18.7 µM. actives 0.13% (n = 350,000);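 active means replicate mean at a twofold rise or more, about +100% in these data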;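 further: firefly luciferase made from a UUG start codon reports start codon fidelity; reporter light over untreated wells divided by growth signal over untreated wells; some hits fall short of that in this replicate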
Env fusion inh: HIV envelope-mediated fusion inhibition. HeLa-JRFL Env/CEM21 cell fusion, luciferase. inhibition, % at 12.3 µM. actives 1.1% (n = 360,000). AID 651610;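 active means mean replicate inhibition score of at least 50 and every replicate individually at or above 50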;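 further: 0% = plate neutral controls and 100% = maraviroc near 300 nM; one replicate is shown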
Numbers without * were called inactive; [ ] = remark or other dose. Some of the compounds tested (hit frequency here may not be typical).

| Env fusion inh | Yeast UUG start | SMILES |
| --- | --- | --- |
| 14.7[16.7 µM] | -3.7 | CN1C[C@@H](O)COC[C@H]2O[C@@H](CC(=O)N3CCN(c4ccccc4)CC3)CC[C@@H]21 |
| -4.0[16.7 µM] | -3.6 | COc1cccc(S(=O)(=O)N[C@@H]2CC[C@@H](CCNC(=O)Cc3ccncc3)O[C@@H]2CO)c1 |
| -14.6[16.7 µM] | -2.2 | CC(C)NC(=O)N(C)C[C@H]1OCCCC[C@@H](C)Oc2ccc(NS(=O)(=O)c3cccs3)cc2C(=O)N([C@H](C)CO)C[C@H]1C |
| -46.3[16.7 µM] | -4.7 | C[C@@H]1CN([C@@H](C)CO)C(=O)c2cccc(NS(=O)(=O)c3cccs3)c2O[C@H]1CN(C)Cc1ccccc1 |
| 9.4[16.7 µM] | 18.1 | COc1ccc(NC(=O)N[C@H]2CC[C@@H](CCNC(=O)c3ccccc3F)O[C@@H]2CO)cc1 |
| -11.9[16.7 µM] | 4.4 | CC(C)NC(=O)N(C)C[C@@H]1Oc2cc(C#CC(C)(C)O)ccc2S(=O)(=O)N([C@H](C)CO)C[C@@H]1C |
| -8.9[16.7 µM] | -4.7 | C[C@H]1CN([C@@H](C)CO)C(=O)Cc2cc(NC(=O)Nc3ccc(F)cc3)ccc2O[C@@H]1CN(C)S(=O)(=O)c1ccc(Cl)cc1 |
| -1.8[16.7 µM] | -13.1 | CCCC#Cc1cnc2c(c1)C(=O)N([C@H](C)CO)C[C@@H](C)[C@H](CN(C)C(=O)C1CC1)O2 |
| 2.5[16.7 µM] | -10.1 | COc1cccc(-c2ccc([C@@H]3[C@@H](CO)N(C(=O)c4ccccn4)[C@H]3C#N)cc2)c1 |
| -14.2[16.7 µM] | -3.8 | C[C@H]1CN([C@@H](C)CO)C(=O)c2cc(C#CCN(C)C)cnc2O[C@H]1CN(C)Cc1ccc(F)cc1 |
| -2.7[16.7 µM] | 5.1 | C[C@@H]1CN([C@H](C)CO)C(=O)c2cc(NC(=O)Nc3ccccc3)ccc2O[C@@H]1CN(C)S(=O)(=O)c1cccs1 |
| -31.9[16.7 µM] | -14.2 | Cc1ccc(S(=O)(=O)N[C@H]2CC[C@H](CC(=O)O)O[C@@H]2CO)cc1 |
| -21.9[16.7 µM] | 17.1 | C[C@H](O)C#Cc1ccc2c(c1)O[C@H](CN(C)Cc1ccccc1)[C@@H](C)CN([C@@H](C)CO)S2(=O)=O |
| -10.4[16.7 µM] | 5.7 | C[C@@H]1CN([C@@H](C)CO)C(=O)c2cc(N(C)C)ccc2O[C@@H](C)CCCCO[C@@H]1CN(C)CC1CCCCC1 |
| 3.7[16.7 µM] | 7.2 | C/C=C/c1cnc2c(c1)C(=O)N([C@H](C)CO)C[C@H](C)[C@@H](CN(C)C(=O)NC1CCCC1)O2 |
| -13.4[16.7 µM] | -2.7 | O=C(NCC[C@@H]1CC[C@H](NS(=O)(=O)c2ccc(F)cc2)[C@@H](CO)O1)c1ccc2c(c1)OCO2 |
| 57.4*[16.7 µM] | -22.3 | C[C@@H]1CCCCO[C@H](CN(C)C(=O)C2CCCCC2)[C@@H](C)CN([C@@H](C)CO)C(=O)c2cc(NC(=O)Nc3ccc(F)cc3)ccc2O1 |
| -4.5[16.7 µM] | 4.9 | C[C@@H]1CCCCO[C@@H](CN(C)C(=O)CCCN(C)C)[C@H](C)CN([C@@H](C)CO)C(=O)c2cc(NC(=O)CCC(F)(F)F)ccc2O1 |
| 3.4[16.7 µM] | 10.0 | C[C@H]1CN([C@@H](C)CO)S(=O)(=O)c2ccc(C#CC3CC3)cc2O[C@H]1CN(C)C(=O)c1ccncc1 |
| 13.8[16.7 µM] | 25.0* | COc1ccc(-c2ccc3c(c2)O[C@H](CN(C)C(=O)c2ccccc2F)[C@H](C)CN([C@H](C)CO)S3(=O)=O)cc1 |

The last 3 compounds of the part before open the next one:
| Env fusion inh | Yeast UUG start | SMILES |
| --- | --- | --- |
| -4.5[16.7 µM] | 4.9 | C[C@@H]1CCCCO[C@@H](CN(C)C(=O)CCCN(C)C)[C@H](C)CN([C@@H](C)CO)C(=O)c2cc(NC(=O)CCC(F)(F)F)ccc2O1 |
| 3.4[16.7 µM] | 10.0 | C[C@H]1CN([C@@H](C)CO)S(=O)(=O)c2ccc(C#CC3CC3)cc2O[C@H]1CN(C)C(=O)c1ccncc1 |
| 13.8[16.7 µM] | 25.0* | COc1ccc(-c2ccc3c(c2)O[C@H](CN(C)C(=O)c2ccccc2F)[C@H](C)CN([C@H](C)CO)S3(=O)=O)cc1 |
| -26.1[16.7 µM] | 0.0 | CO[C@@H]1CN(C)C(=O)c2cc(NC(C)=O)ccc2OC[C@H](C)N(C(=O)C2CC2)C[C@H]1C |
| 20.6[16.7 µM] | 3.4 | CN1C(=O)c2cc(NC(=O)Nc3ccc(Cl)cc3)ccc2OC[C@@H]2O[C@@H](CC(=O)O)CC[C@H]21 |
| 7.9[16.7 µM] | -2.2 | COCC(=O)Nc1ccc2c(c1)[C@@H]1C[C@H](CC(=O)NCCc3ccccc3)O[C@@H](CO)[C@@H]1O2 |
| 2.4[16.7 µM] | 23.9 | COc1ccc(NC(=O)Nc2ccc3c(c2)CC(=O)N([C@H](C)CO)C[C@@H](C)[C@@H](CN(C)C(=O)Nc2ccc(C(F)(F)F)cc2)O3)cc1 |
| 26.4[16.7 µM] | -3.8 | C[C@@H]1CCCCO[C@@H](CN(C)C(=O)c2ccccc2)[C@@H](C)CN([C@H](C)CO)C(=O)c2cc(NS(=O)(=O)c3cn(C)cn3)ccc2O1 |
| -21.1[16.7 µM] | 0.5 | C[C@H](CO)N1C[C@H](C)[C@H](CN(C)S(=O)(=O)c2ccccc2)Oc2ncccc2C1=O |
| -16.0[16.7 µM] | -39.0 | C[C@H]1CN([C@@H](C)CO)C(=O)c2cc(C3=CCCC3)cnc2O[C@@H]1CN(C)Cc1ccccn1 |
| -11.6[16.7 µM] | -2.4 | C[C@@H]1CN([C@H](C)CO)C(=O)c2cc(Br)cnc2O[C@@H]1CN(C)C(=O)c1ccccc1F |
| -3.1[16.7 µM] | 7.6 | CNC(=O)C[C@H]1CC[C@@H]2[C@@H](COc3ccc(NC(=O)Nc4ccccc4F)cc3C(=O)N2C)O1 |
| 1.8[16.7 µM] | 3.9 | C[C@@H]1CN([C@@H](C)CO)C(=O)Cc2cc(NC(=O)Nc3ccc(C(F)(F)F)cc3)ccc2O[C@@H]1CN(C)CC1CC1 |
| 3.0[16.7 µM] | -6.7 | C[C@H]1CN([C@@H](C)CO)C(=O)Cc2cc(NC(=O)Cc3cn(C)c4ccccc34)ccc2O[C@H]1CN(C)CC1CCCCC1 |
| 8.7[16.7 µM] | -3.1 | C/C=C/c1cnc2c(c1)C(=O)N([C@H](C)CO)C[C@H](C)[C@@H](CN(C)C(=O)C1CCCCC1)O2 |
| -36.7[16.7 µM] | 3.4 | C[C@@H]1CCCCO[C@@H](CN(C)Cc2ccccc2)[C@@H](C)CN([C@@H](C)CO)C(=O)c2cc(NC(=O)Nc3ccc4c(c3)OCO4)ccc2O1 |
| -17.1[16.7 µM] | -7.8 | C[C@H]1CN([C@@H](C)CO)S(=O)(=O)c2ccc(-c3cncnc3)cc2O[C@H]1CN(C)Cc1ccccn1 |
| 92.2*[16.7 µM] | -6.9 | C[C@H]1CN([C@@H](C)CO)C(=O)Cc2cc(NC(=O)Nc3ccc4c(c3)OCO4)ccc2O[C@H]1CN(C)S(=O)(=O)c1cccs1 |
| -11.8[16.7 µM] | 3.1 | COC(=O)C[C@@H]1CC[C@H]2[C@@H](COc3ccc(NS(=O)(=O)c4cccc(F)c4)cc3C(=O)N2C)O1 |
| 14.7[16.7 µM] | -4.0 | C[C@H]1CN([C@@H](C)CO)C(=O)c2cccc(NC(=O)c3cnccn3)c2O[C@H]1CN(C)C(=O)NC1CCCCC1 |
| 7.4[16.7 µM] | 5.7 | C[C@@H]1CCCCO[C@@H](CN(C)Cc2ccc(C(F)(F)F)cc2)[C@@H](C)CN([C@@H](C)CO)C(=O)c2cc(NS(=O)(=O)c3ccc(Cl)cc3)ccc2O1 |
| -5.1[16.7 µM] | -1.0 | Cc1noc(C)c1S(=O)(=O)Nc1ccc2c(c1)C(=O)N([C@H](C)CO)C[C@H](C)[C@@H](CN(C)S(=O)(=O)c1cn(C)cn1)OCCCC[C@@H](C)O2 |
| -6.5[16.7 µM] | 19.9 | C[C@@H]1CCCCO[C@@H](CN(C)C(=O)C2CCCCC2)[C@@H](C)CN([C@H](C)CO)C(=O)c2cc(NC(=O)CCCCCC(=O)Nc3ccccc3N)ccc2O1 |
| 16.4[16.7 µM] | 19.8 | COc1ccc(NC(=O)Nc2cccc3c2O[C@@H](CN(C)S(=O)(=O)c2ccc(F)cc2)[C@H](C)CN([C@H](C)CO)C3=O)cc1 |
| -5.0[16.7 µM] | 2.4 | O=C(Nc1ccc(C(F)(F)F)cc1)N[C@@H]1CC[C@H](CCNC(=O)c2ccccc2F)O[C@H]1CO |
| 31.7[16.7 µM] | 27.3 | CC(C)CC#Cc1ccc2c(c1)O[C@@H](CN(C)C(=O)C1CCC1)[C@H](C)CN([C@H](C)CO)S2(=O)=O |
| 0.4[16.7 µM] | 10.1 | COc1ccccc1C(=O)Nc1ccc2c(c1)C(=O)N(C)C[C@@H](OC)[C@H](C)CN(CC1CC1)[C@@H](C)CO2 |
| -3.2[16.7 µM] | 19.3 | C[C@H]1CN([C@@H](C)CO)C(=O)c2cc(C#CC3(O)CCCC3)cnc2O[C@@H]1CN(C)C(=O)CN(C)C |
| -16.1[16.7 µM] | 2.3 | COc1ccc(S(=O)(=O)N(C)C[C@@H]2Oc3c(NC(=O)c4ccc(-c5nccs5)cc4)cccc3C(=O)N([C@H](C)CO)C[C@@H]2C)cc1 |
| 26.3[16.7 µM] | -5.9 | Cc1noc(C)c1S(=O)(=O)N(C)C[C@@H]1Oc2ccc(NC(=O)Nc3ccc(F)cc3)cc2CC(=O)N([C@@H](C)CO)C[C@H]1C |
| 7.9[16.7 µM] | 10.7 | COc1ccc(-c2cnc3c(c2)C(=O)N([C@H](C)CO)C[C@H](C)[C@H](CN(C)S(=O)(=O)c2cccc(F)c2)O3)cc1 |
| 32.3[16.7 µM] | 7.1 | COc1cccc(-c2ccc3c(c2)O[C@@H](CN(C)C(=O)c2ccccc2F)[C@@H](C)CN([C@H](C)CO)S3(=O)=O)c1 |
| 38.0[16.7 µM] | 4.0 | CC(C)CC#Cc1cnc2c(c1)C(=O)N([C@H](C)CO)C[C@@H](C)[C@@H](CN(C)Cc1ccc(F)cc1)O2 |
| 13.8[16.7 µM] | -4.7 | O=C(C[C@H]1C=C[C@H](NC(=O)Nc2ccccc2F)[C@H](CO)O1)NCc1ccc(F)cc1 |
| -18.2[16.7 µM] | -1.4 | CNC[C@@H]1Oc2cc(C#C[C@H](C)O)ccc2S(=O)(=O)N([C@@H](C)CO)C[C@H]1C |
| -1.2[16.7 µM] | 7.1 | C[C@@H]1CN([C@@H](C)CO)C(=O)c2cc(C#CCC3CCCC3)cnc2O[C@@H]1CN(C)C(=O)c1cnccn1 |
| -0.3[16.7 µM] | 11.5 | O=C(Nc1ccccc1)N[C@H]1CC[C@H](CCNS(=O)(=O)c2cccc(F)c2)O[C@@H]1CO |
| 17.2[16.7 µM] | 7.4 | CNC(=O)C[C@@H]1CC[C@@H]2[C@@H](COc3ccc(NC(=O)Nc4ccc(Cl)cc4)cc3C(=O)N2C)O1 |
| 20.5[16.7 µM] | 11.4 | C[C@H](CO)N1C[C@H](C)[C@@H](CN(C)C(=O)c2cnccn2)Oc2ncc(/C=C/c3ccccc3)cc2C1=O |
| 3.0[16.7 µM] | 18.2 | COc1ccc(CN(C)C[C@@H]2Oc3ccc(NS(=O)(=O)c4ccc(OC)cc4)cc3C(=O)N([C@H](C)CO)C[C@H]2C)cc1 |
| -7.6[16.7 µM] | 0.4 | CC(=O)N(C)C[C@H]1Oc2ncc(C3=CCCC3)cc2C(=O)N([C@@H](C)CO)C[C@@H]1C |
| -11.0[16.7 µM] | -1.2 | C[C@H](CO)N1C[C@H](C)[C@H](CN(C)Cc2ccc(C(=O)O)cc2)Oc2c(NS(=O)(=O)c3ccc(Cl)cc3)cccc2C1=O |
| -3.8[16.7 µM] | -3.9 | C[C@H](CO)N1C[C@H](C)[C@H](CN(C)Cc2ccc(F)cc2)Oc2ncc(C#Cc3cccnc3)cc2C1=O |
| 25.9[16.7 µM] | -1.3 | Cc1ccccc1-c1ccc2c(c1)O[C@H](CN(C)Cc1ccncc1)[C@@H](C)CN([C@@H](C)CO)S2(=O)=O |
| 0.8[16.7 µM] | -4.9 | Cc1noc(C)c1S(=O)(=O)N(C)C[C@H]1Oc2ccc(NC(=O)C3CCCCC3)cc2CC(=O)N([C@H](C)CO)C[C@H]1C |
| -4.4[16.7 µM] | 16.2 | CC(C)NC(=O)N(C)C[C@@H]1Oc2c(NC(=O)C3CC3)cccc2C(=O)N([C@@H](C)CO)C[C@H]1C |
| 23.2[16.7 µM] | -3.2 | CC(C)NC(=O)N(C)C[C@@H]1Oc2ccc(NS(=O)(=O)c3cccs3)cc2C(=O)N([C@@H](C)CO)C[C@H]1C |
| 17.8[16.7 µM] | -7.5 | COc1ccc(NC(=O)Nc2ccc3c(c2)CC(=O)N([C@H](C)CO)C[C@@H](C)[C@H](CN(C)S(=O)(=O)c2ccc(F)cc2)O3)cc1 |
| -12.9[16.7 µM] | 6.1 | C[C@@H]1CN([C@H](C)CO)S(=O)(=O)c2ccc(C#CCN(C)C)cc2O[C@@H]1CN(C)C(=O)CC1CC1 |
| 10.7[16.7 µM] | -1.3 | O=C(C[C@@H]1C=C[C@@H](NC(=O)CN2CCOCC2)[C@H](CO)O1)NC1CCCCC1 |
| -5.6[16.7 µM] | -14.0 | O=C(C[C@@H]1CC[C@H]2NC[C@H](O)COC[C@@H]2O1)NCc1ccc(Oc2ccccc2)cc1 |
| 8.4[16.7 µM] | 2.7 | Cc1ccc(S(=O)(=O)Nc2ccc3c(c2)C(=O)N([C@@H](C)CO)C[C@@H](C)[C@@H](CN(C)C(=O)C2CCCCC2)OCCCC[C@H](C)O3)cc1 |
| 18.1[16.7 µM] | -9.2 | O=C(C[C@H]1C[C@H]2c3cc(NC(=O)Cc4ccncc4)ccc3O[C@H]2[C@H](CO)O1)NCc1cccnc1 |

Screening results (PubChem BioAssay)
